High-throughput results deposited in PubChem by several laboratories.
ugtP null kill = growth inhibition of ugtP-null S. aureus, primary screen, RN4220 ugtP deletion, OD600. 16 h; some inactives read as strong as hits. growth inhibition, % (concentration not given with the values). actives 0.54% (n = 330,000). AID 1259309, 2017;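 active means z-score under -3 and OD600 up to 0.15 on both plates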;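 further: plate controls were untreated wells for no effect and antibiotic for full effect; wells of about 80 µL received 100 nL stock; the first replicate is given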
BJeLR lethal = MLPCN primary cell-based screen for lethality selective to Ras in HRASV12 cells | BJeLR (HRASV12) viability, CellTiter-Glo ATP luminescence, 48 h; reference of the scale not given here | inhibition, % (test concentration not listed) | actives 0.17% (n = 300,000) | AID 1554, 2009;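 active means replicate mean above 50%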;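 further: 50 nL library stock added to about 25 µL; numbers are from one replicate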
Autofluor counter = counter-screen for toxin protease inhibitors: compound fluorescence. compound autofluorescence counterscreen, microsphere flow cytometry; stronger effect = higher value. fluorescence intensity (concentration not given with the values). actives 3.1% (n = 360,000);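 active means at least 3 SD above the mean of all compounds, about 16000 in these data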;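 further: 100 nL of 1 mM stock went into each well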
PrP 5UTR inh = inhibition of PrP 5' UTR reporter expression; cell-based PrP 5' UTR mRNA reporter, plate reader; inhibition, % (test concentration not listed); actives 0.35% (n = 340,000); AID 488862, 2010;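 active means every replicate at 50% or more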;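 further: 0 = median of the neutral control wells; tested in H4 reporter cells; numbers are from one replicate; inactives centre near -14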
Mtb hypoxia inh = PubChem AID 1159583 | actives 0.1% (n = 300,000) | M. tuberculosis hypoxia-regulated fluorescent reporter, fluorescence | fluorescence inhibition, % (concentration not given with the values);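 active means 35 to 45% if threefold the growth effect, above 45% if 1.5-fold the growth effect; inactive means the rest, general growth blockers included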;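 further: wells of about 50 µL received 100 nL stock; 0% = vehicle wells and 100% = reference inhibitor wells; whole bacteria with a GFP reporter of the hypoxia response; strong numbers were not always called active; many hits fall short of the cut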
Sa RN4220 lethal = growth inhibition of S. aureus RN4220, primary screen, OD600. 16 h. inhibition, % (concentration not given with the values). actives 0.33% (n = 330,000);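 active means z-score of -3 or lower and OD600 up to 0.18 on both plates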;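 further: plate controls were untreated cells for no effect and reference antibiotic for full effect; stock transfer was 100 nL into about 80 µL; one replicate is shown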
Mtb hypoxia inh growth = recorded beside Mtb hypoxia inh, whose call it bears; growth inhibition, %; measured here: M. tuberculosis growth (absorbance);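 0% = vehicle and 100% = reference antibiotic; read after six days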
Active calls of the source: *; x = no result given. Random draw from the library (roughly 4% active in at least one column).

SMILES	ugtP null kill	BJeLR lethal	Autofluor counter	PrP 5UTR inh	Mtb hypoxia inh	Mtb hypoxia inh growth	Sa RN4220 lethal
CCN(CC)CCCN1C(=O)C(O)=C(C(=O)c2ccc(C)o2)C1c1ccc(C)o1 (stereo not drawn)	1	1	2374	-12	-5	-10	-2.9
COc1ccc(C(=O)NC2=Nc3ccccc3N=C(C)C2c2ccccc2)cc1 (stereo not drawn)	1	-1	4032	-39	10	3	3.9
COc1ccc(-n2nnnc2SCc2nc3ccccc3s2)cc1	-5	-2	3636	-54	3	3	-8.0
CC(C)(C)NC(=O)CN(C(=O)c1ccc(CN2CCOCC2)o1)c1ccc2c(c1)OCCO2	5	-2	11104	-5	-6	2	0.4
Cc1cccc(N2CCN(C(=O)n3ccnc3)CC2)c1C	8	2	3617	-19	19	12	3.9
C[C@@H]1CN(S(=O)C(C)(C)C)[C@@H](CCO)/C1=C\c1ccccc1 (stereo partly drawn)	1	x	3479	-15	-7	6	3.1
COC(=O)c1ccccc1NC(=O)Cc1nc(-c2ccccc2)sc1-c1ccc(C)cc1	-11	3	2401	-6	-13	6	-0.6
CC(C)(CNC(=O)c1cc(Cl)c(O)c(Cl)c1)N1CCCCC1	4	-1	2979	4	3	-2	5.2
Oc1c(Cl)cc(Cl)cc1/C=N/Nc1ncc(Br)cn1	x	12	2129	37	x	x	x
CC(=O)NC1C(Oc2ccccc2C)OC2COC(c3ccco3)OC2C1O (stereo not drawn)	11	-9	9204	1	14	15	4.3
C[C@H]1COC(=O)[C@H](CC(=O)OC(C)(C)C)C/C=C\C[C@@H](CC(=O)NCCO)C(=O)N1	4	x	2948	-4	6	-2	-0.8
O=C(COC(=O)CNC(=O)c1ccccc1Cl)Nc1ncc(C(F)(F)F)cc1Cl	x	6	2281	-16	x	x	x
CCOC(=O)c1ccc(-n2c(C)nc3ccccc3c2=O)cc1	-3	-12	2768	-51	7	5	-13
CCN=C1SC(CC(=O)Nc2ccc(N3CCOCC3)cc2)C(=O)N1CC (stereo not drawn)	-1	5	2788	-11	10	4	-8.1
O=C(CN1CCN(c2ccccn2)CC1)Nc1cccc(Cl)c1Cl	-1	5	3926	-26	-2	5	3.6
Cc1nn(-c2ccccc2)nc1C(=O)NN	-1	6	3990	-19	-1	8	2.3
COc1cc(C(=O)Nc2sc3c(c2C(=O)O)CCC(C)C3)cc(OC)c1OC (stereo not drawn)	-2	-15	3061	-2	0	3	26
Cc1cc(=O)n(C(C)(C)C)c(=O)n1Cc1ccccc1	3	4	3081	-18	6	-5	1.5
Cc1ccc(C)c(S(=O)(=O)N2CCN(C(=O)CCC(=O)NCc3ccc(Cl)cc3Cl)CC2)c1	-11	x	2949	9	-3	-4	-0.1
O=C(O)C1CCC(CNCc2ccccc2Cl)CC1 (stereo not drawn)	x	-11	2368	5	x	x	x
Cc1ccccc1OCC(=O)OCC(=O)Nc1ccc(N2CCOCC2)cc1	5	0	2379	-11	10	-1	-0.8
COC(=O)/C(C#N)=C/c1ccc(N2CCOCC2)c([N+](=O)[O-])c1	0	4	4165	-10	11	9	1.8
CC(C)CCCN1C(Nc2ccccc2)=NC[C@@H]1CC(C)C	x	-2	3562	-9	x	x	x
Cn1cc(CN2CCCC(C(=O)c3nccn3C)C2)c(-c2cccc(Cl)c2)n1 (stereo not drawn)	4	14	1979	-17	1	8	5.7
O=C(N/N=C/c1ccc(O)cc1)c1ccc(NC(=O)c2ccccc2Br)cc1	x	6	2437	-71	x	x	x
COc1cc(C2C3=C(CC(C)(C)CC3=O)OC3=C2C(=O)CC(C)(C)C3)cc([N+](=O)[O-])c1O	3	0	3894	-53	9	-3	18
CCOc1ccc(C(=O)NCC(=O)OC2CCOC2=O)cc1OCC (stereo not drawn)	12	-2	3412	-10	x	x	-0.5
C=CCNC(=O)/C(C#N)=C/c1c(N2CCN(c3cccc(Cl)c3)CC2)nc2c(C)cccn2c1=O	-1	-1	4344	-17	15	6	0.3
COc1ccc(-c2nc3ccccc3o2)cc1NC(=O)c1ccc(Br)o1	-13	-3	3401	-7	3	3	4.6
O=C(CNCCO)NC12CC3CC(CC(C3)C1)C2	-1	-1	3744	-8	1	1	6.9
COC(=O)c1nc(NC(=O)C(C)C)n[nH]1	3	2	11574	-21	0	0	0.6
CC(C)NC(=S)N/N=C/c1sc(N2CCCCC2)nc1-c1cccs1	x	-18	4007	-18	x	x	x
COc1ccc(C2(CNC(=O)c3ccccc3[N+](=O)[O-])CCOCC2)cc1	1	-10	2511	-8	10	7	5.9
Cc1ccc(Nc2ncccc2C(N)=O)cc1[N+](=O)[O-]	11	4	1990	-82	14	16	1.3
COc1cc(C(=O)N[C@@H](Cc2c[nH]c3ccccc23)C(=O)O)cc(OC)c1OC	-3	-1	3791	-24	7	5	6.1
COc1ccc2oc(C(=O)N(CC(C)C)C3CCS(=O)(=O)C3)c(C)c2c1 (stereo not drawn)	-1	3	6860	-19	10	3	5.7
CCC(=O)c1ccc(OCC(=O)Nc2ccccc2N2CCCCC2)cc1	10	33	4859	-32	0	5	-0.1
Cc1nnnn1-c1ccc(CC(=O)O)cc1	11	0	3440	-19	13	-3	5.6
Cc1noc(C)c1COC(=O)c1ccccc1NC(=O)Cc1ccccc1	6	1	9796	-14	10	7	4.9
O=C(Oc1ccc(C=NNC(=O)c2ccccn2)cc1)c1cccc(Br)c1	-4	x	x	x	8	4	4.5
CCOCC(=O)Nc1ccc(Br)c(C)c1	-6	-4	3696	-44	13	21	1.8
Cc1ccc(OCc2cc(C(=O)NC(C)Cc3cccc(C)n3)no2)cn1 (stereo not drawn)	8	-16	6568	-27	3	9	4.1
Brc1ccccc1C=NNc1ccc2ccccc2n1	26	x	x	x	-2	-3	1.4
Cc1cccc(C(=O)NNC(=O)CCn2nnc3ccccc32)c1	x	4	4500	-13	x	x	x
COc1ccc(-c2nc(CS(=O)CC(=O)NC3CCCCC3)c(C)o2)cc1 (stereo not drawn)	11	3	5152	-15	8	9	3.3
COCCN(C(=O)CNC(=O)c1cccs1)C(C(=O)NC1CCCC1)c1cccs1 (stereo not drawn)	6	-5	4988	-9	x	x	-0.1
O=C(NCCN1C(=O)S/C(=C\c2cccnc2)C1=O)C1CC(=O)N(Cc2ccco2)C1 (stereo not drawn)	-1	4	3347	-13	11	2	5.2
O=C(COC(=O)c1ccc(F)cc1)NCC1CCCCC1	3	x	4171	-16	7	6	2.2
CCOC(=O)N1CCC(NC(=O)CCc2c(C)nc3nc(C)nn3c2C)CC1	8	2	8266	x	2	2	4.5
COc1ccc(CCNC(=O)Cn2nnc3ccccc3c2=O)cc1	0	2	2003	-23	-1	7	5.3
CC(N=Cc1c(O)n(C2CC2)c(=S)[nH]c1=O)c1ccccc1 (stereo not drawn)	-2	9	5889	-18	-8	0	5.2
C1=C(c2ccc(-c3ccccc3)cc2)Nc2ncnn2C1c1ccco1 (stereo not drawn)	-3	x	4309	-32	x	x	6.7
CC(=O)c1cccc(NC(=O)Cn2cnc(S(=O)(=O)N3CCc4ccccc43)c2)c1	7	-2	5332	-13	13	7	-0.1
O=C(CSCC(=O)NCc1ccco1)NCc1ccco1	5	-12	7039	-11	13	2	-1.4
FC(F)(F)c1nnc(-c2ccccc2)nc1Sc1ccc(Cl)cc1	20	2	8985	-29	10	9	28
CCOC(=O)N1CCN(c2ccc(C(C)=O)cc2F)CC1C (stereo not drawn)	-6	1	2237	-24	11	10	13
COc1cccc(-n2cnc(=O)c3cccnc32)c1	5	3	2035	-8	8	2	1.4
O=C(c1cn(Cc2ccccc2)nc1-c1cccnc1)N1CCN(Cc2ccccc2)CC1	3	x	3630	-20	8	2	5.0
COc1ccc(CNC(=O)C/C(C)=N/NC(=O)c2ccccc2OC)cc1	x	-5	3667	-17	x	x	x
CN(C(=O)COC(=O)c1ccccc1OCc1ccc(Cl)cc1)c1c(N)n(Cc2ccccc2)c(=O)[nH]c1=O	2	-6	x	-21	1	3	2.1

Next section:
SMILES	ugtP null kill	BJeLR lethal	Autofluor counter	PrP 5UTR inh	Mtb hypoxia inh	Mtb hypoxia inh growth	Sa RN4220 lethal
COc1ccc(NC(=O)c2cccc(S(=O)(=O)N3CCN(c4ccccc4)CC3)c2)c(OC)c1	3	x	3304	-25	0	8	-0.6
CCn1cnc2c(cnn2-c2ccccc2)c1=O	-6	1	2997	-18	-10	1	2.6
COCCNC(=O)Cc1ccc(F)cc1	3	-2	2332	-20	7	4	5.1
NS(=O)(=O)c1cc(C(=O)N2CCNC(=O)C2)ccc1Cl	-5	-2	3990	-28	12	1	2.5
CCC(C)Sc1ccc(C2N[C@@](C)(C(=O)OC)C3C(=O)N(C)C(=O)C23)cc1 (stereo partly drawn)	3	x	x	x	17	7	8.7
CC(=O)Nc1cc(C(=O)NCc2ccco2)ccc1Sc1ccc(Cl)cc1	-4	-22	2439	-10	-8	14	-5.9
COc1ccc(OC)c(NC(=O)C(=O)NN=C(C)CC(=O)Nc2ccc(Cl)cn2)c1	5	x	x	x	1	-1	2.9
COc1ccc(C(=O)NCC(=O)NN=Cc2ccc([N+](=O)[O-])s2)cc1OC	15	x	x	x	-2	8	24
CC(C)C(N)c1cn(C(CC(N)=O)C(=O)N2CCNCC2)nn1 (stereo not drawn)	5	x	x	x	2	-3	4.6
CC(C(=O)Nc1ccc(C#N)cc1)N(C)CC(=O)Nc1ccccc1Br (stereo not drawn)	1	4	4423	-13	6	-3	-4.7
CC1(C)CC(=O)C(CC(=O)Nc2ccc(S(N)(=O)=O)cc2)=C(O)C1	-3	-4	10113	-25	-8	0	-2.4
CCCC(=O)N1CCN(c2nc3ccc(Br)cc3s2)CC1	11	11	5798	-75	-6	2	8.6
COc1ccc(CN2CC(=O)N(c3cccc(Cl)c3)C2=S)cc1OC	1	0	3101	-11	-8	-7	4.5
CN(C)S(=O)(=O)c1ccc(C(=O)Oc2coc(CSc3ncccn3)cc2=O)cc1	-5	x	2276	-16	-14	6	-4.2
CN(CCc1cn[nH]c1)C(=O)CC1C(=O)NCCN1Cc1ccccc1C(F)(F)F (stereo not drawn)	1	10	2069	-11	-5	-11	1.8

Not a retest: entries from further up.
SMILES	ugtP null kill	BJeLR lethal	Autofluor counter	PrP 5UTR inh	Mtb hypoxia inh	Mtb hypoxia inh growth	Sa RN4220 lethal
CN(C(=O)COC(=O)c1ccccc1OCc1ccc(Cl)cc1)c1c(N)n(Cc2ccccc2)c(=O)[nH]c1=O	2	-6	x	-21	1	3	2.1
COc1ccc(NC(=O)c2cccc(S(=O)(=O)N3CCN(c4ccccc4)CC3)c2)c(OC)c1	3	x	3304	-25	0	8	-0.6
CCn1cnc2c(cnn2-c2ccccc2)c1=O	-6	1	2997	-18	-10	1	2.6
COCCNC(=O)Cc1ccc(F)cc1	3	-2	2332	-20	7	4	5.1
NS(=O)(=O)c1cc(C(=O)N2CCNC(=O)C2)ccc1Cl	-5	-2	3990	-28	12	1	2.5
CCC(C)Sc1ccc(C2N[C@@](C)(C(=O)OC)C3C(=O)N(C)C(=O)C23)cc1 (stereo partly drawn)	3	x	x	x	17	7	8.7
CC(=O)Nc1cc(C(=O)NCc2ccco2)ccc1Sc1ccc(Cl)cc1	-4	-22	2439	-10	-8	14	-5.9
COc1ccc(OC)c(NC(=O)C(=O)NN=C(C)CC(=O)Nc2ccc(Cl)cn2)c1	5	x	x	x	1	-1	2.9
COc1ccc(C(=O)NCC(=O)NN=Cc2ccc([N+](=O)[O-])s2)cc1OC	15	x	x	x	-2	8	24
CC(C)C(N)c1cn(C(CC(N)=O)C(=O)N2CCNCC2)nn1 (stereo not drawn)	5	x	x	x	2	-3	4.6
CC(C(=O)Nc1ccc(C#N)cc1)N(C)CC(=O)Nc1ccccc1Br (stereo not drawn)	1	4	4423	-13	6	-3	-4.7
CC1(C)CC(=O)C(CC(=O)Nc2ccc(S(N)(=O)=O)cc2)=C(O)C1	-3	-4	10113	-25	-8	0	-2.4
CCCC(=O)N1CCN(c2nc3ccc(Br)cc3s2)CC1	11	11	5798	-75	-6	2	8.6
COc1ccc(CN2CC(=O)N(c3cccc(Cl)c3)C2=S)cc1OC	1	0	3101	-11	-8	-7	4.5
CN(C)S(=O)(=O)c1ccc(C(=O)Oc2coc(CSc3ncccn3)cc2=O)cc1	-5	x	2276	-16	-14	6	-4.2
CN(CCc1cn[nH]c1)C(=O)CC1C(=O)NCCN1Cc1ccccc1C(F)(F)F (stereo not drawn)	1	10	2069	-11	-5	-11	1.8
